# rRNA inh HTS = selective bacterial rRNA inhibition in E. coli; E. coli WT GFP vs humanized-ribosome RFP mutants, fluorescence, 24 h; active compounds read low; DMSO median 0, no signal -100; GFP signal change (wild-type ribosome), % (no concentration beside the values); actives 1.6% (n = 350,000);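 active means significant combined selectivity score with lowered wild-type GFP, culture density cut under 30%, mutant RFP and density less affected; inactive means any of these conditions unmet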; further: one replicate is shown; some compounds called inactive have numbers as strong as hits
# FGF22 binding = binders of recombinant human FGF22 by thermal shift. Q9HCT0. SYPRO orange fluorescence; percent of sucrose octasulfate shift, DMSO zero. calls only at 9.99 µM. actives 1.5% (n = 340,000). AID 651658;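 active means melting point raised past a set limit in the mean and every replicate; three in four hits are not shown here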
# Target sequence (Q9HCT0 whole entry, looked up): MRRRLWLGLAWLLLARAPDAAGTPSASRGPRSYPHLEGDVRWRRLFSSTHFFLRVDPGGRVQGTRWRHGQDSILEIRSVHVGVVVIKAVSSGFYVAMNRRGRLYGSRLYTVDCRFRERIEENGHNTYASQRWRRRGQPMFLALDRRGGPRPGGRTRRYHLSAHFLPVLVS
# rRNA inh HTS OD600 = also measured in rRNA inh HTS; calls as there; OD600 change, %; measured here: OD600 growth;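 optical density of the mix in the first replicate; 0 = DMSO median and -100 = no signal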
# rRNA inh HTS RFP = second read-out of rRNA inh HTS, no call of its own (marks repeat the call); RFP signal change, %; measured here: RFP humanized mutant strains;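 first replicate; 0 = DMSO median and -100 = no signal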
# Starred values were filed as active, the others as inactive; i = inactive; & = joins results of further samples. Some of the compounds tested; the hit share may differ from the screen's.
SMILES,rRNA inh HTS,rRNA inh HTS OD600,rRNA inh HTS RFP,FGF22 binding
O=C(Nc1ccc(Cl)cc1)N1C[C@@H]2[C@H](c3ccccc31)[C@H](CO)N2C(=O)c1ccccn1,-53*,-36*,-12*,i
C[C@H](CO)N1C[C@H](C)[C@@H](CN(C)C(=O)c2cnccn2)Oc2ncc(-c3ccccc3F)cc2C1=O,4,0,-5.7,i
C[C@@H]1CCCCO[C@@H](CN(C)C(=O)CCC(F)(F)F)[C@H](C)CN([C@@H](C)CO)C(=O)c2cc(NC(=O)CCCN(C)C)ccc2O1,2,9,-1.4,i
O=C(C[C@@H]1CC[C@@H]2[C@H](COC[C@H](O)CN2Cc2cc(F)cc(F)c2)O1)Nc1nccs1,-3,11,2.3,i
N#Cc1cccc(-c2ccc3c(c2)[C@@H]2[C@@H](CCN2C(=O)c2ccccc2F)[C@@H](CO)N3)c1,-40,-38,0.2,i
CCCC(=O)Nc1ccc2c(c1)C(=O)N(C)[C@H]1CC[C@H](CC(=O)Nc3cccc(C)c3)O[C@@H]1CO2,-5,-3,-1.2,i
Nc1nc2c(ncn2[C@@H]2O[C@H](C(=O)NCCc3c[nH]c4ccccc34)[C@@H](O)[C@H]2O)c(=O)[nH]1,11,7,7.6,i
COC(=O)C1=C(C)N(Cc2ccc(Br)cc2)C(=S)NC1c1cccc(OC)c1 (configuration not stated),0,7,4.5,i
COc1ccc(NC(=O)N(C)C[C@@H]2Oc3ccc(NC(=O)Nc4ccc5c(c4)OCO5)cc3CC(=O)N([C@@H](C)CO)C[C@H]2C)cc1,-3,1,-0.6,i
CCc1c(-c2ccc(OC)cc2)ncn1Cc1cccc(-c2ccccc2)c1,-20,-23,8.2,i
O=C(C[C@@H]1CC[C@@H]2[C@H](COC[C@H](O)CN2Cc2cc(F)ccc2F)O1)NCc1ccc(Cl)cc1,-12,-45,3.4,i
O=C(C[C@H]1CC[C@H]2[C@@H](COC[C@@H](O)CN2C(=O)c2ccccc2)O1)NCCCN1CCOCC1,1,1,-2.6,i
Oc1ccc(-c2csc(Nc3ccc4c(c3)OCO4)n2)c(O)c1,11,7,5.2,i
CS(=O)(=O)Nc1ccc2c(c1)[C@H]1C[C@H](CC(=O)N3CCCCC3)O[C@@H](CO)[C@H]1O2,5,6,-1.4,i
O=[N+]([O-])c1c(Cl)cc(Cl)cc1Cl,0,-5,5.4,i
C[C@H](CO)N1C[C@H](C)[C@@H](CN(C)S(=O)(=O)c2ccc(F)cc2)OCCCC[C@H](C)Oc2ccc(NS(=O)(=O)c3ccc(F)cc3)cc2C1=O,-8,-34,-3.4,i
C[C@@H]1CN([C@H](C)CO)C(=O)Cc2cc(NC(=O)CCN3CCOCC3)ccc2O[C@H]1CN(C)Cc1ccc(C(=O)O)cc1,2,7,-3.5,i
CNC(=O)C[C@@H]1CC[C@H]2[C@@H](COc3ccc(NC(=O)Nc4cccc(F)c4)cc3C(=O)N2C)O1,2,-4,-0.2,i
C[C@@H]1CCCCO[C@@H](CN(C)S(C)(=O)=O)[C@H](C)CN([C@H](C)CO)C(=O)c2cc(NC(=O)Nc3ccc(F)cc3)ccc2O1,-3,-2,2.7,i
CCNC(=O)C[C@H]1CC[C@H]2[C@@H](COC[C@H](O)CN2C(=O)c2cc(Cl)cc(Cl)c2)O1,3,13,-1.9,i
COc1ccc(S(=O)(=O)N(C)C[C@@H]2Oc3c(NS(=O)(=O)c4ccc(Cl)cc4)cccc3C(=O)N([C@H](C)CO)C[C@H]2C)cc1,-6,-9,1.0,i
O=C(C[C@@H]1CC[C@@H]2[C@H](COC[C@H](O)CN2C(=O)c2cnccn2)O1)N1CCN(c2ccccc2)CC1,1,17,0.8,i
CCC(=O)N1CC[C@@H]2[C@@H](CO)N(C)c3ccc(-c4ccc(C#N)cc4)cc3[C@@H]21,-5,-9,-0.4,i
O=C(C[C@H]1CC[C@H]2[C@@H](COC[C@@H](O)CN2Cc2cccc(Cl)c2)O1)NCC1CCCCC1,-9,-34,1.5,i
Cc1cc(C)c(S(=O)(=O)N2C[C@H]3CON(C)[C@H]3C[C@H]2c2ccc(-n3ccnc3)cc2)c(C)c1,9,17,3.8,i
# Further records follow.
SMILES,rRNA inh HTS,rRNA inh HTS OD600,rRNA inh HTS RFP,FGF22 binding
COc1ccc2c3c([nH]c2c1)[C@H](CO)N(Cc1ccccc1)CC31CCN(C)CC1,1,11,0.6,i
COc1cccc(C2NC(=S)N(Cc3ccccc3)C(C)=C2C(C)=O)c1 (configuration not stated),-17,-19,-1.7,i
COCc1cc(N2CCN(C(=O)OC(C)(C)C)C[C@@H]2C)ccc1N1C[C@@H](C)O[C@@H](C)C1,-1,0,0.6,i
COc1cccc(-c2ccc3c(c2)[C@@H]2[C@@H](CCN2C(=O)CC2CC2)[C@H](CO)N3C)c1,-39,-63,7.0,i
Cc1nn(C)cc1NC(=O)C[C@@H]1CC[C@@H]2[C@H](COc3ccc(NC(=O)C(C)C)cc3C(=O)N2C)O1,4,8,0.2,i
COc1ccccc1S(=O)(=O)Nc1ccc2c(c1)C(=O)N(C)C[C@H](OC)[C@@H](C)CN[C@@H](C)CO2,4,13,1.8,i
COc1cc2c(cc1OC)[C@](C)(c1ccccc1)C[C@@H]2NCC=C(C)C,9,21,9.0,i
CN(C)C(=O)C[C@@H]1CC[C@H]2[C@@H](COc3ccc(NC(=O)C4CC4)cc3C(=O)N2C)O1,5,-5,-1.2,i
Cc1noc(C)c1S(=O)(=O)Nc1ccc2c(c1)C(=O)N([C@@H](C)CO)C[C@H](C)[C@H](CN(C)S(=O)(=O)c1cccs1)OCCCC[C@@H](C)O2,0,-5,0.7,i
COc1ccc(NC(=O)C(C2CC2)n2c(=O)c(-c3cc4ccccc4[nH]3)nc3ccccc32)cc1 (configuration not stated),6,10,0.9,i
COc1ccc(NC(=O)Nc2ccc3c(c2)C(=O)N([C@H](C)CO)C[C@H](C)[C@@H](CN(C)S(=O)(=O)c2c(C)noc2C)OCCCC[C@H](C)O3)cc1,-3,-3,-1.6,i
CC(C)C(=O)Nc1ccc2c(c1)C(=O)N(C)[C@@H]1CC[C@H](CC(=O)NCc3ccccc3F)O[C@@H]1CO2,-2,-3,-1.0,i
Cc1cc(N2CCN(CC(C)(C)O)C[C@H]2C)ccc1N1CCN(CC(C)(C)O)[C@H](C)C1,9,13,2.3,i
C[C@H](CO)N1C[C@H](C)[C@H](CN(C)Cc2ccc(C(F)(F)F)cc2)OCCCC[C@H](C)Oc2ccc(NC(=O)Nc3ccccc3)cc2C1=O,-2,-7,1.7,i
CN1c2ccc(-c3ccccc3F)cc2[C@@H]2[C@@H](CCN2C(=O)NC2CCCC2)[C@@H]1CO,-18,-50,29,i
COc1ccc(NC(=O)N(C)C[C@@H]2OCCCC[C@H](C)Oc3ccc(NS(=O)(=O)c4ccc(OC)cc4)cc3C(=O)N([C@H](C)CO)C[C@@H]2C)cc1,-4,-2,0.7,i
C[C@H](O)[C@@H]1C(=O)N2CCc3c([nH]c4cccc(-c5ccccc5)c34)[C@@H]2C[C@@H]1N(C)C(=O)C1CCCCC1,10,2,5.7,i
C[C@H]1CCCCO[C@@H](CN(C)Cc2ccccc2)[C@@H](C)CN([C@@H](C)CO)C(=O)c2cc(NC(=O)c3ccccc3)ccc2O1,0,5,1.4,i
C[C@H]1CN([C@@H](C)CO)S(=O)(=O)c2ccc(C#CCN(C)C)cc2O[C@@H]1CN(C)Cc1ccncc1,-5,-10,-0.4,i
COc1ccc(S(=O)(=O)Nc2cccc3c2O[C@H](CN(C)S(=O)(=O)c2ccc(C)cc2)[C@@H](C)CN([C@H](C)CO)C3=O)cc1,-4,2,1.7,i
O=C(C[C@@H]1C[C@H]2c3cc(NC(=O)Nc4ccc(F)cc4)ccc3O[C@H]2[C@H](CO)O1)NC1CCCCC1,-10,-38,8.1,i
COc1ccc(NC(=O)Nc2ccc3c(c2)C(=O)N([C@@H](C)CO)C[C@@H](C)[C@@H](CN(C)S(=O)(=O)c2c(C)noc2C)OCCCC[C@@H](C)O3)cc1,0,-2,0.5,i
Cc1ccc(S(=O)(=O)N[C@@H]2CC[C@@H](CCn3cc(C4CCCCC4)nn3)O[C@@H]2CO)cc1,-4,-16,-3.3,i
COc1ccc(NC(=O)Nc2ccc3c(c2)C(=O)N([C@H](C)CO)C[C@H](C)[C@@H](CN(C)C(=O)CCC(F)(F)F)OCCCC[C@H](C)O3)cc1,-2,-9,2.3,i
COc1ccc(CN(C)C[C@H]2OCCCC[C@H](C)Oc3ccc(NC(=O)Cc4ccccc4)cc3C(=O)N([C@H](C)CO)C[C@H]2C)cc1,2,-3,-0.4,i

# Next part; the last 2 above are carried over.
SMILES,rRNA inh HTS,rRNA inh HTS OD600,rRNA inh HTS RFP,FGF22 binding
COc1ccc(NC(=O)Nc2ccc3c(c2)C(=O)N([C@H](C)CO)C[C@H](C)[C@@H](CN(C)C(=O)CCC(F)(F)F)OCCCC[C@H](C)O3)cc1,-2,-9,2.3,i
COc1ccc(CN(C)C[C@H]2OCCCC[C@H](C)Oc3ccc(NC(=O)Cc4ccccc4)cc3C(=O)N([C@H](C)CO)C[C@H]2C)cc1,2,-3,-0.4,i
CNC(=O)C[C@@H]1CC[C@H]2[C@@H](COc3ccc(NC(=O)c4cnccn4)cc3C(=O)N2C)O1,5,3,1.1,i
C[C@H](CO)N1C[C@H](C)[C@@H](CN(C)S(C)(=O)=O)Oc2ccc(N(C)C)cc2CC1=O,1,4,-2.7,i
COCC(=O)Nc1ccc2c(c1)C(=O)N(C)[C@@H]1CC[C@@H](CC(=O)OC)O[C@H]1CO2,3,9,-1.1,i
C[C@H](CO)N1C[C@H](C)[C@@H](CN(C)C(=O)Nc2ccc(C(F)(F)F)cc2)Oc2c(NC(=O)C3CC3)cccc2C1=O,-5,3,-1.3,i
C[C@@H]1CCCCO[C@@H](CN(C)C(=O)CCCN(C)C)[C@H](C)CN([C@H](C)CO)C(=O)c2cc(NC(=O)Nc3ccc(C(F)(F)F)cc3)ccc2O1,-38,-64,28,i
Cc1cc(O)cc(=O)n1-c1cc(Cl)cc(Cl)c1,-1,7,1.3,i
COC(=O)C[C@@H]1CC[C@@H]2[C@H](COc3ccc(NC(=O)c4cc(F)cc(F)c4)cc3C(=O)N2C)O1,-2,6,0.5,i
COC(=O)C1=C(C)N(Cc2ccccc2C(F)(F)F)C(=NCc2ccc3c(c2)OCO3)NC1c1ccccc1 (configuration not stated),-42,-77,-16,i
Cc1cccc(-c2ccc(C3[C@H]4CNC[C@@H]3N4C(=O)Nc3ccccc3Cl)cc2)c1 (some centres not stated),4&-55,4&-71,1.3&-14,i
CCCC(=O)Nc1ccc2c(c1)C(=O)N(C)[C@H]1CC[C@@H](CC(=O)NCc3ccccc3F)O[C@H]1CO2,0,-5,-1.2,i
COc1ccc(S(=O)(=O)N2CC[C@@H]3[C@H](CO)N(C)c4ccc(-c5ccccc5F)cc4[C@@H]32)cc1,0,3,2.8,i
COc1cccc(C2NC(=S)N(Cc3ccc(Br)cc3)C(C)=C2C(C)=O)c1 (configuration not stated),-10,-9,-1.2,i
CC(C)C#Cc1ccc([C@H]2[C@@H](CO)N3CCCCN(C(=O)NC(C)C)C[C@@H]23)cc1,3,2,2.0,i
C[C@@H]1ON(C)[C@H]2C[C@H]3c4[nH]c5c(-c6ccccc6F)cccc5c4CCN3C(=O)[C@@H]12,-28,-64,3.1,i
COCCNC(=O)C[C@@H]1CC[C@H]2[C@@H](COC[C@H](O)CN2S(=O)(=O)c2ccccc2F)O1,4,0,-1.8,i
Cc1noc(C)c1S(=O)(=O)Nc1ccc2c(c1)CC(=O)N([C@@H](C)CO)C[C@@H](C)[C@H](CN(C)C(=O)Nc1ccc3c(c1)OCO3)O2,2,6,-2.1,i
C[C@@H]1CCCCO[C@@H](CN(C)S(=O)(=O)c2cccs2)[C@H](C)CN([C@H](C)CO)C(=O)c2cc(NC(=O)NC3CCCCC3)ccc2O1,-3,-1,0.2,i
CNC(=O)C[C@H]1CC[C@@H]2[C@@H](COc3ccc(NC(=O)c4cnccn4)cc3C(=O)N2C)O1,-3,1,0.7,i
CNC(=O)C[C@H]1CC[C@H]2[C@H](COc3ccc(NC(=O)C4CC4)cc3C(=O)N2C)O1,3,3,-2.4,i
O=C(C[C@H]1CC[C@H]2[C@@H](COC[C@@H](O)CN2C(=O)Nc2ccc(F)cc2)O1)NC1CCC1,2,14,-1.6,i
CCNC(=O)C[C@@H]1CC[C@H]2[C@H](COc3ccc(NC(=O)c4cccc(C(F)(F)F)c4)cc3C(=O)N2C)O1,-2,-3,0.2,i

# Quoted at random: six compounds from above, in no set order.
SMILES,rRNA inh HTS,rRNA inh HTS OD600,rRNA inh HTS RFP,FGF22 binding
COC(=O)C[C@@H]1CC[C@@H]2[C@H](COc3ccc(NC(=O)c4cc(F)cc(F)c4)cc3C(=O)N2C)O1,-2,6,0.5,i
CC(C)C#Cc1ccc([C@H]2[C@@H](CO)N3CCCCN(C(=O)NC(C)C)C[C@@H]23)cc1,3,2,2.0,i
C[C@H](CO)N1C[C@H](C)[C@@H](CN(C)S(C)(=O)=O)Oc2ccc(N(C)C)cc2CC1=O,1,4,-2.7,i
CNC(=O)C[C@H]1CC[C@@H]2[C@@H](COc3ccc(NC(=O)c4cnccn4)cc3C(=O)N2C)O1,-3,1,0.7,i
COC(=O)C1=C(C)N(Cc2ccccc2C(F)(F)F)C(=NCc2ccc3c(c2)OCO3)NC1c1ccccc1 (configuration not stated),-42,-77,-16,i
COCCNC(=O)C[C@@H]1CC[C@H]2[C@@H](COC[C@H](O)CN2S(=O)(=O)c2ccccc2F)O1,4,0,-1.8,i
